Arbovirus inh: antivirals against arbovirus infection, primary screen, cell-based, full library, 10K replicate subset; arbovirus infection cell-based antiviral screen; inhibition, % at 10 µM; actives 0.37% (n = 200,000);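 active means inhibition from about 30%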;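 further: bluetongue infection of BSR cells; cell survival read as ATP light after 72 h; 0% = infected wells without compound and 100% = uninfected wells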
YopH PTP inh: YopH tyrosine phosphatase inhibitors, primary screen, biochemical, fluorescence Ex485/Em525 | YopH tyrosine phosphatase [Yersinia enterocolitica] | inhibition, %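 (about 10 µM by stock and volumes)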 | actives 0.16% (n = 140,000) | AID 898, 2007;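 active means inhibition of 50% or more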;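 further: controls were vehicle for no effect and minimum signal wells for full effect; inactives centre near -20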
RecA splice inh: Mtb RecA intein splicing inhibitors, primary screen, biochemical, fluorescence, HTS. cell-free RecA intein splicing. actives 0.75% (n = 290,000). inhibition, %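 (about 9 µM by stock and volumes)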. Protein RecA (Mycobacterium tuberculosis (strain ATCC 25618 / H37Rv)), P9WHJ3; in the data active means inhibition above about 30%; inconclusive means no clear call, values can overlap the other calls;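 further: 0% = vehicle wells and 100% = reference inhibitor control wells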
Target sequence (P9WHJ3 whole entry, looked up, canonical isoform): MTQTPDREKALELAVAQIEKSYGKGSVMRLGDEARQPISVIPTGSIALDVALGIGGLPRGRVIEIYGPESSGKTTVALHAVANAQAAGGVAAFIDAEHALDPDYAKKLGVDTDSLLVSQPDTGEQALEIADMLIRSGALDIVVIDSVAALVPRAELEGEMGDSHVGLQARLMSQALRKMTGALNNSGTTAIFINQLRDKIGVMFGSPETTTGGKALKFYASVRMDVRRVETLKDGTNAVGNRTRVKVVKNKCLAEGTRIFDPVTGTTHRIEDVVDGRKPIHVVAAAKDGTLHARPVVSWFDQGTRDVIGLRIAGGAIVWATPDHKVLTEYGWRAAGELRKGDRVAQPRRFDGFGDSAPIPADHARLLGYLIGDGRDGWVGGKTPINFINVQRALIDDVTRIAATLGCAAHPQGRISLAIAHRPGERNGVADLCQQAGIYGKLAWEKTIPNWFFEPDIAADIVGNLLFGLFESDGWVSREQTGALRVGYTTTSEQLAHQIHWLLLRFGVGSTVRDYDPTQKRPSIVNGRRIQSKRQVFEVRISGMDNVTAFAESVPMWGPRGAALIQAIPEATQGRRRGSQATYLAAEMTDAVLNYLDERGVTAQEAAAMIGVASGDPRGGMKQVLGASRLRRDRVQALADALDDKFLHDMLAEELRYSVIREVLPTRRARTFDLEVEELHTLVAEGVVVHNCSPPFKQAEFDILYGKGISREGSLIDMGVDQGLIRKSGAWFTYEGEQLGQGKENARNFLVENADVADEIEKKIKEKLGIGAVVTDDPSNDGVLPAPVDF
Mtb betalactam: beta-lactam sensitization of Mtb H37Rv, H37Rv; AID 434955, 2010; actives 0.27% (n = 330,000); inhibition, % at 25 µM; M. tuberculosis H37Rv growth with meropenem, percent inhibition; hits of this screen are not shown here;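 active means about 74% or more and at least 40 points above the plate without the antibiotic, then above 30% in a dose series; inconclusive means first-round hits that could not be retested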;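 further: growth measured after seven days incubation then overnight dye step; 0% = bacteria only wells and 100% = bacteria with antibiotic; twin plates without the antibiotic show which effects depend on it; some results filed as inactive read as strong as hits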
Mtb H37Rv: M. tuberculosis H37Rv growth inhibitors, H37Rv strain (AID 1626) | M. tuberculosis H37Rv growth inhibition; higher % means a stronger effect | inhibition, % at 10 µM; hits with a dose series show IC50 in µM | actives 0.95% (n = 220,000);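 active means confirmed in a dose series; inconclusive means inhibition above 80% but not taken into the dose series; inactive means below 80% or under 30% at every dose of the series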;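 further: bacteria incubated seven days before Alamar blue readout; 0% = bacteria only wells and 100% = bacteria with antibiotic wells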
Arbovirus inh repeat: second read-out of Arbovirus inh, no call of its own (marks repeat the call); inhibition, %; measured here: 10K subset replicate screen; many hits read low in the repeat;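 first of two repeat runs on a subset; 0% = infected and 100% = uninfected wells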
The depositor's hits bear a star; ? = inconclusive; nt = no result given. An excerpt; rates above refer to the full screens.

Start of the data: the first three compounds (preview)
SMILES | Arbovirus inh | YopH PTP inh | RecA splice inh | Mtb betalactam | Mtb H37Rv | others
CCCOc1ccc(N2C(=O)C3ON(c4ccccc4)C(CCC)C3C2=O)cc1 (stereo not given) | -2 | -15 | 0.0 | -12 | -11%
CCOC(=O)c1sc2ncn(C(C)C(=O)OC)c(=O)c2c1C (stereo not given) | 6 | -8 | -0.6 | -3 | -16%
CCCCNC(=O)Nc1ccc2c(c1)N(C)C(=O)c1ccccc1S2 | nt | nt | 12 | -3 | nt

Main list, from the first entry:
SMILES | Arbovirus inh | YopH PTP inh | RecA splice inh | Mtb betalactam | Mtb H37Rv | others
CCCOc1ccc(N2C(=O)C3ON(c4ccccc4)C(CCC)C3C2=O)cc1 (stereo not given) | -2 | -15 | 0.0 | -12 | -11%
CCOC(=O)c1sc2ncn(C(C)C(=O)OC)c(=O)c2c1C (stereo not given) | 6 | -8 | -0.6 | -3 | -16%
CCCCNC(=O)Nc1ccc2c(c1)N(C)C(=O)c1ccccc1S2 | nt | nt | 12 | -3 | nt
CC1CCCCN1C(=O)CSc1nnc(CSc2ncccn2)n1C (stereo not given) | 4 | -28 | -2.4 | 3 | -18%
O=C(Cn1c(=O)oc2cc(S(=O)(=O)NCc3ccccc3)ccc21)N1CCCC1 | nt | nt | -2.6 | -15 | 5%
C=C1C2(C(=O)Nc3nccs3)CCC(C2)C1(C)C (stereo not given) | -3 | -36 | 0.3 | 3 | -5%
CCSc1nc2sc3c(c2c(=O)n1-c1ccccc1C)CCN(C)C3 | nt | nt | 0.8 | 30 | nt
O=C(CSc1nc(O)cc(=O)n1-c1ccccc1)Nc1ccc(Br)cn1 | 3 | nt | 4.7 | 2 | 1%
CCCOC(=O)c1c(NC(=O)c2cnn3c2NC(c2ccccc2)CC3C(F)(F)F)sc2c1CCCC2 (stereo not given) | -5 | -30 | -0.5 | 7 | -1%
O=C(c1ccccc1)c1ccc(OCC(O)CN2CCN(S(=O)(=O)N3CCCCC3)CC2)cc1 (stereo not given) | -1 | -7 | 0.7 | 61 | 15%

Molecules shown so far that have two or more sulfur atoms, in the order listed:
SMILES | Arbovirus inh | YopH PTP inh | RecA splice inh | Mtb betalactam | Mtb H37Rv | others
CC1CCCCN1C(=O)CSc1nnc(CSc2ncccn2)n1C (stereo not given) | 4 | -28 | -2.4 | 3 | -18%
CCSc1nc2sc3c(c2c(=O)n1-c1ccccc1C)CCN(C)C3 | nt | nt | 0.8 | 30 | nt

The list goes on:
SMILES | Arbovirus inh | YopH PTP inh | RecA splice inh | Mtb betalactam | Mtb H37Rv | others
COc1ccc(NC(=O)CSc2nnc(NC(=O)CN3CCOCC3)s2)cc1 | 13 | nt | -3.7 | 3 | -3%
COc1cc(/C=C2\SC(=S)N(NC(=O)c3ccccc3O)C2=O)ccc1O | nt | nt | -6.3 | 0 | nt
CCN(CC)C(=O)Cn1cnc2c1c(=O)n(C)c(=O)n2C | 8 | 10 | -1.7 | 3 | 3%
Cc1ccc(C)c(NC(=O)NNC(=O)CCc2ccccc2)c1 | nt | nt | 1.8 | -9 | nt
O=c1[nH]c(SCc2ccccc2Cl)nc2c1CCCC2 | 12 | 34 | -1.3 | -6 | 10%
O=c1ccn(-c2cccc(C(F)(F)F)c2)nc1-c1ccn(-c2ccccc2F)n1 | 1 | -31 | -4.4 | 64 | 14%
COc1ccc(C(=O)N/N=C/c2cc3ccccc3[nH]c2=S)cc1 | -12 | -23 | 14 | 40 | -3%
Cc1ccc(S(=O)(=O)N2CCOCC2)cc1NC(=O)CNCc1cccnc1 | nt | nt | -0.6 | -7 | -5%
CCC(C)NC(=O)c1ccccc1NC(=O)c1ccc(CSc2ccc(C)cc2)cc1 (stereo not given) | -7 | -33 | 0.8 | 2 | 5%
C/C(=N/NC(=O)C1CCCCC1)c1ccc([N+](=O)[O-])cc1 | -1 | -22 | -1.3 | -2 | 0%
O=C(NCc1ccccc1Cl)C1CCCO1 (stereo not given) | 0 | nt | -0.6 | -5 | -4%
Cc1ccc(NC(=O)N2CCC(c3ccccc3)C2)cc1C (stereo not given) | -11 | nt | 1.6 | 0 | -2%
CC(=O)Nc1ccc(S(=O)(=O)NCc2ccncc2)cc1 | 4 | nt | 1.1 | 8 | -1%
Cc1c(C#N)c2ccccc2n1CC(=O)O | 5 | -38 | 0.2 | -1 | nt
CCCn1nnc2ccccc2c1=O | -4 | -16 | -0.3 | 0 | -1%
CCOC(=O)c1cc(C#N)c(N)nc1C | 2 | -22 | -1.8 | -10 | -2%
NNC(=O)CCn1c2ccccc2c2ccccc21 | -7 | nt | nt | -2 | -2%
Cc1ccc(-n2nc3c(=O)n(CC(=O)NC4CCCCCC4)nc(C)c3c2C)cc1 | nt | nt | -0.8 | -2 | nt
O=C(CSc1nnc(Cc2cccs2)n1Cc1ccco1)Nc1cc(Cl)cc(Cl)c1 | -22 | -44 | -1.4 | 5 | -9%
CCc1cc(-c2[nH]ncc2-c2ccc3c(c2)OCO3)c(O)cc1O | -39 | -52 | 4.9 | -2 | nt

6 structures already listed, sorted by molecular weight, rising.
SMILES | Arbovirus inh | YopH PTP inh | RecA splice inh | Mtb betalactam | Mtb H37Rv | others
CCCn1nnc2ccccc2c1=O | -4 | -16 | -0.3 | 0 | -1%
O=C(NCc1ccccc1Cl)C1CCCO1 (stereo not given) | 0 | nt | -0.6 | -5 | -4%
NNC(=O)CCn1c2ccccc2c2ccccc21 | -7 | nt | nt | -2 | -2%
CCc1cc(-c2[nH]ncc2-c2ccc3c(c2)OCO3)c(O)cc1O | -39 | -52 | 4.9 | -2 | nt
Cc1ccc(-n2nc3c(=O)n(CC(=O)NC4CCCCCC4)nc(C)c3c2C)cc1 | nt | nt | -0.8 | -2 | nt
O=C(CSc1nnc(Cc2cccs2)n1Cc1ccco1)Nc1cc(Cl)cc(Cl)c1 | -22 | -44 | -1.4 | 5 | -9%

Next entries.
SMILES | Arbovirus inh | YopH PTP inh | RecA splice inh | Mtb betalactam | Mtb H37Rv | others
CCc1ccc2nc(N(CCN(C)C)C(=O)c3ccc4ncsc4c3)sc2c1 | nt | nt | 1.8 | -16 | nt
Cn1cnnc1SCCC(=O)Nc1ccccc1 | 0 | -33 | 4.8 | 3 | 0% | Arbovirus inh repeat=-3
C[C@H](NC(=O)c1ccccc1Cl)C(=O)OCC(=O)N1CC2(C)CC1CC(C)(C)C2 (stereo not given in full) | -3 | -60 | -0.9 | 0 | 2%
C#CCNC(=O)C1=C[C@H](c2csc3ccccc23)C[C@H](OCc2ccc(CO)cc2)O1 | -4 | nt | 8.6 | 8 | 8%
CC(C)NC(=O)CN(c1cccc([N+](=O)[O-])c1)S(=O)(=O)c1ccccc1 | 23 | nt | 1.5 | -13 | 0%
O=C(Nc1ccc(Cl)c(NC(=O)c2cccs2)c1)c1ccco1 | nt | nt | 4.2 | -1 | nt
COc1ccc(Cl)cc1-c1nc(SCC(=O)NC(C)(C)C)n[nH]1 | -8 | nt | -2.5 | -1 | 1%
COc1cccc(C(=O)Nc2ccc3c(c2)C(=O)N(CCC(=O)O)C3=O)c1 | 5 | -9 | 1.9 | -11 | -1%
O=C(Cn1nnc(-c2ccccc2)n1)Nc1cccc(S(=O)(=O)N2CCOCC2)c1 | nt | nt | -4.0 | 1 | nt
Cn1nnnc1SCc1csc(Nc2ccccc2)n1 | 0 | -39 | -0.4 | -7 | -14%
CCOc1ccc(N(CC(=O)NCC2CCCO2)S(=O)(=O)c2ccc(Cl)cc2)cc1 (stereo not given) | 0 | -14 | 0.4 | -4 | -6%
NNC(=O)[C@H](Cc1ccccc1)NC(=O)NCCc1ccccc1 | nt | nt | 0.3 | -4 | nt
CCOC(=O)CCCCC(=O)c1[nH]c(=O)[nH]c1CSc1nc2ccccc2[nH]1 | 11 | -31 | -5.3 | 0 | -2%
CCc1nc(SCc2cccnc2)[nH]c(=O)c1C | 0 | -41 | -6.0 | -8 | -4%
Cc1cc(S(=O)(=O)N(Cc2ccc(C(C)(C)C)cc2)Cc2cccs2)ccc1-n1cnnn1 | -16 | 25 | 3.3 | 10 | 9%
Cc1oc2nc(SCCCC(=O)NCCO)nc(N)c2c1C | 5 | -9 | 4.0 | -12 | -7%
CC(=O)Nc1ccc(NC(=O)C2CCN(C(=O)c3cccs3)CC2)cc1 | 5 | nt | 3.2 | -1 | -4%
N/N=C(/Cc1nc2ccccc2[nH]1)c1ccc([N+](=O)[O-])cc1 | -4 | nt | 11 | 99 | 29%
CCNC(=O)NC(=O)C(C)Sc1nnc(COc2ccccc2Cl)o1 (stereo not given) | 6 | -26 | 1.3 | 26 | -6%
CCOC(=O)c1cc(S(=O)(=O)N2CCOCC2)cn1C | nt | nt | -0.5 | 2 | nt
O=c1c2cc(N3CCOCC3)ccc2[nH]c(=S)n1CCCN1CCCCC1 | 10 | -5 | -11 | ? | -3%
Cc1cc(N)n(-c2ncnc3scc(-c4ccc(Cl)cc4)c23)n1 | 5 | -2 | 0.9 | -1 | -5%
Cc1ccccc1Nc1ncnc2c1cnn2Cc1ccccc1 | nt | nt | 1.9 | 2 | 9%
COc1ccc(/C=C(/C#N)C(=O)Nc2ccccc2C)cc1C(=O)O | 12 | -8 | 2.0 | -4 | 8%
O=C(C1CCN(c2ncnc3c2nc2n3CCCCC2)CC1)N1CCN(c2ccc(F)cc2)CC1 | nt | nt | -4.5 | 99 | nt
Cn1nnc(NC(=O)CSc2ccc(Cl)cc2)n1 | 4 | 3 | 1.2 | -13 | -10%
Cc1nn2c(nc(N3CCOCC3)c3ccccc32)c1C=C(C#N)C#N | -9 | -18 | 1.7 | -3 | -1%
Cc1cccc(CCN(CC(=O)NC2CCCCC2)C(=O)c2csnn2)c1 | -4 | nt | 3.0 | 4 | -1%
CCn1c2ccccc2c2cc(NC(=O)c3ccccc3[N+](=O)[O-])ccc21 | 3 | -26 | 3.0 | 7 | 0%
COc1ccc(CSc2ccc(-c3nc4ccccn4c3NCc3ccccc3)cc2OC)cc1 | nt | nt | -4.1 | -5 | nt
Cn1c(CNc2nc3ccccc3n2CCN2CCCCC2)nc2ccccc21 | 5 | -30 | nt | 12 | -13%
O=C(NCc1ccncc1)c1cnccn1 | 4 | -98 | 2.6 | -4 | -7%
COc1ccc(-c2c(C(=O)O)c(C(=O)O)c3n2CCC3)cc1 | nt | nt | 0.6 | 6 | nt
COc1cc(OC)c(C(=O)/C=C/c2ccc(OCc3ccccc3)c(OC)c2)c(OC)c1 | nt | nt | 4.1 | 85 | nt
O=C(CN1CCCC1)Nc1nnc(-c2cccs2)s1 | -7 | -18 | -0.6 | -1 | -7%
Cc1ccc2c(COC(=O)CC3Sc4ccccc4NC3=O)cc(=O)oc2c1C (stereo not given) | -21 | -6 | 1.1 | 7 | 5%
CCN1/C(=C/c2ccc3ccccc3[n+]2CCCS(=O)(=O)[O-])C=Cc2cc(C)ccc21 | nt | nt | 2.9 | 16 | nt
COc1ccc(CCNC(=O)CCCn2nc(C)n3ccnc3c2=O)cc1OC | nt | nt | -0.7 | -2 | nt
O=C1CC2c3ccccc3C1C1C(=O)N(CCc3ccccc3)C(=O)C21 (stereo not given) | -2 | nt | 0.5 | -2 | -4%
CC(=O)NC1C(=O)Nc2c1cccc2C(F)(F)F (stereo not given) | 1 | -18 | 1.8 | -5 | -2%
